# Screens as filed in PubChem BioAssay.
# Sfp inh: inhibitors of Bacillus subtilis Sfp phosphopantetheinyl transferase; Potency, µM, inactives show max response, negative = inhibition, usual class: inhibitors; AID 1490; Biochemical Sfp PPTase activity, qHTS; actives 3.5% (n = 310,000); active means well fitted inhibition curve with a large enough effect; inconclusive means small, poorly fitted or top-dose-only effect, or another doubt; inactive means no such curve, though single readings can be large or run the other way;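 further: the enzyme is Sfp with the accession as filed and its product quenches rhodamine fluorescence; potency means the concentration at half of the fitted maximal effect; 0% = enzyme reaction without inhibitor and -100% = no enzyme wells; top concentration of the series not given in the record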
#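 Buffer: 50 mM Hepes-Na pH 7.6, 10 mM MgCl2, 0.01% Nonidet P-40, 0.01% BSA. Enzyme 15 nM, pre-exposed to compound 15 min; substrates then added and fluorescence change tracked over 30 min.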
# D2 PAM: potentiates the human D2 dopamine receptor allosterically | P14416 | DiscoveRx D2 beta-arrestin cells, luminescence, 90 min; 100% = 57 uM dopamine signal | potentiation, % (test concentration not listed) | actives 0.23% (n = 360,000) | AID 624464; active = potentiation of 50% or more; inconclusive = 30% to 50%; inactive = 30% or less;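 further: compound concentration not given in the record; tested on top of an EC20 dose of dopamine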
# Target sequence (P14416 whole entry, looked up): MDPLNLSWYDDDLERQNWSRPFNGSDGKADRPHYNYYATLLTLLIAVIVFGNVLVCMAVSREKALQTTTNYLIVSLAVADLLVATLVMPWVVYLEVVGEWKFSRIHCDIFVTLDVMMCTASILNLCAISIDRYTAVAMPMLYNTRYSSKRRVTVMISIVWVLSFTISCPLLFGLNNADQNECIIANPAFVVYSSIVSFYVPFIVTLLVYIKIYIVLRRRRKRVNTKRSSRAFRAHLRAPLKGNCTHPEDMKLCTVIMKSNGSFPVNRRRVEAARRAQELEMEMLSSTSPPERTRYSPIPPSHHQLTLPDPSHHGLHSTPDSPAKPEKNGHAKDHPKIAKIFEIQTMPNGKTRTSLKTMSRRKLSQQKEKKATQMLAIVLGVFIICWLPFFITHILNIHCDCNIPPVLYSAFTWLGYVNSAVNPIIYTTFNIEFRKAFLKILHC
#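 PathHunter D2 cells, attached overnight at 37 deg C, received compound in DMSO plus dopamine at EC20 (50 nM final) for 90 min at 37 deg C. Beta-arrestin recruitment was read as luminescence after 1 h with detection reagent at ambient temperature.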
# ClpP mod: qHTS Assay for Activators of ClpP | actives 1.9% (n = 340,000) | ATP-dependent Clp protease proteolytic subunit (Bacillus subtilis (strain 168)), P80244 | purified B. subtilis ClpP, FRET peptide cleavage, 20 min | AID 651965, 2013 | Potency, µM (highest dose often 57.5 µM), for inactives: top-dose activity change, negative = active; active = well fitted falling curve with a large enough effect; inconclusive = small, poorly fitted or top-dose-only effect; inactive = no such curve, though single readings can be large or run the other way; further: potency means the concentration at half of the fitted maximal effect; the source files actives as falling curves though it sought activators and does not explain the sign; nearly all actives have a fitted effect of over 65% in size; many hits overshoot -100%
# Target sequence (P80244 whole entry, looked up): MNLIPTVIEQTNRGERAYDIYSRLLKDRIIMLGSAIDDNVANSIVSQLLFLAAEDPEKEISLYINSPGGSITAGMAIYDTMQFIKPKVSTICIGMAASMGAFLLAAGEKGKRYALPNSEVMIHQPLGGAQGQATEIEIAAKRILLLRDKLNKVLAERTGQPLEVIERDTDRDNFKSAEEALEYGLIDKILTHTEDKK
#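 ClpP 10 microg/mL final, pH 8 Tris/KCl buffer with BSA, glycerol, Tween-20; compound pinned in; FRET-FV substrate; RT 20 min; Ex320/Em430; ΔFRET vs ADEP 5.8 microM, DMSO, no enzyme.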
# TRPV1 PAM: enhances activation of the human vanilloid receptor TRPV1 | Q8NER1 | TRPV1-expressing cells, Fluo-8 calcium influx, capsaicin EC20 potentiation; host cell line not named in the record; control for the full effect not named in the record | potentiation, % at 8.33 µM | actives 0.02% (n = 320,000); active means potentiation above 80%; inconclusive means 30% to 80%; inactive means below 30%; further: 0% is about no effect
#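 Cells expressing TRPV1 were dye-loaded with Fluo-8 and read kinetically: 10 s baseline, 3 min after compound (agonist portion), then 2 min after EC20 capsaicin (allosteric enhancer portion). Calcium-bound dye fluorescence at 480/520 nm.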
# gsp antagonist: gsp mutant antagonism; Potency, µM (top dose mostly 76.9 µM), without a hit: top-dose activity change, negative = inhibition, hits mostly inhibitors; actives 0.4% (n = 340,000); gsp-mutant cells, cAMP HTRF, 30 min; control for the full effect not named in the record; active = falling curve of any shape with a large fitted effect; inconclusive = falling curve, mostly with a smaller effect; inactive = flat or rising curve; cell line not stated here;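 further: intracellular cAMP measured with PDE inhibitor Ro 20-1724 present during compound exposure; potency means the concentration at half of the fitted maximal effect; on the % scale 0 is the no-effect control and ±100 the full control effect; nearly all actives have a fitted effect of over 65% in size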
#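 G418-selected cells were plated in DMEM/10% FBS for 16-24 h at 37C, then treated with compounds plus the PDE inhibitor […] (300 uM solution added) for 30 min at 37C. Intracellular cAMP was measured by HTRF after 30 min lysis at room temperature.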
# Menin MLL FP FL: displaces fluorescein MLL peptide from human menin; Fluorescence polarization, fluorescein-MLL peptide displacement from menin; FP activity change, % at 61.4 µM; 290,000 tested, under 10 active; AID 1766; inconclusive = falling polarisation curve, or a change in total fluorescence; inactive = total fluorescence flat and polarisation flat or rising; no compound was filed as active; the % refers to the polarisation; negative = inhibition;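 further: % of control where 0% means no effect; inhibitors lower the polarisation; unlabelled MLL peptide was the positive control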
# gsp agonist: gsp mutant agonism | actives 0.13% (n = 340,000) | Potency, µM (doses to about 76.9 µM), without a hit: at the highest dose activation (cAMP increase), usual class: activators | gsp mutant cells, cAMP HTRF, 30 min; control for the full effect not named in the record | AID 624287; active = well fitted activation curve with a large enough effect; inconclusive = small, poorly fitted or top-dose-only effect, or another doubt; inactive = no such curve, though single readings can be large or run the other way; cell line not stated here;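 further: phosphodiesterase inhibitor Ro 20-1724 added with compounds to block cAMP breakdown; potency means the concentration at half of the fitted maximal effect; nearly all actives have a fitted effect of over 60% in size; about a fifth of the inactives were tested at one dose only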
#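 Cells stably selected in G418 were plated at 2000/well, grown 16-24 hr, then given compounds in DMSO with the PDE inhibitor […] (300 uM solution added) for 30 min at 37C; cAMP was read by HTRF.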
# Starred values were filed as active, the others as inactive; i = inactive; ? = inconclusive; / = not tested or not shown; & = joins results of further samples; [ ] = dose if it differs, or a comment. Rows are unselected, and some 5.1% of all compounds hit somewhere here.
SMILES,Sfp inh,D2 PAM,ClpP mod,TRPV1 PAM,gsp antagonist,Menin MLL FP FL,gsp agonist
COc1cccc(O)c1CN1CCC(C(=O)Nc2ccc(-c3cccc(C)c3)cc2)CC1,79µM*,-12,/,1,-3%,-13,-55%[inhibitor]
O=C(CSCC(=O)N1CCCc2ccccc21)Nc1nc(-c2ccccc2)cs1,-11%,-6,-0.4%,4,-19%,3.1,22%
NC(=O)c1cc([N+](=O)[O-])c(Cl)cc1NCc1ccncc1,/,-9,0.6%,-22,0%,/,/
Cc1nc2ncccn2c1-c1csc(Nc2ccccc2)n1,56µM*,-46,-8.4%,-1,-24%,2.8,2%
Cc1ccc2nc(N3C(=O)C(O)=C(C(=O)c4cc5ccccc5o4)C3c3cccs3)sc2c1 (stereo unspecified),40µM*,-22,2.7%,-10,-5%,19,30%[15.4 µM]
CCOc1ccc(C(=O)NC2CC3CCCC(C2)N3CC(C)C)cc1 (stereo unspecified),9%,-9,-0.6%,0,10%,-3.9,-51%
CCOC(=O)C1C(=O)CC(C)(O)C(C(=O)OCC)C1c1cccc(OC(F)(F)C(F)F)c1 (stereo unspecified),18%,-3,-2.1%,-18,15%,6.5,-59%[inhibitor]
NC(=O)Cn1cnc2c(nnn2-c2cccc(Cl)c2)c1=O,8%,-5,-0.5%,0,1%,-1.1,?
O=C(O)c1cc(NS(=O)(=O)c2ccc(N3CCOCC3)c([N+](=O)[O-])c2)cc(C(=O)O)c1,20%,-8,-1.3%,-3,24%,0.3,24%
c1ccc(-n2c(-c3ccco3)nnc2-c2ccco2)cc1,13%,-12,14µM*,1,2%[15.4 µM],1.4,-1%
Cc1ccc(S(=O)(=O)N(CC(=O)Nc2ccc(C)c(Cl)c2)C(=O)N2CCN(C)CC2)cc1,/,-3,3.4%,11,21%,/,-45%[inhibitor]
COc1ccc(N2CC(C(=O)N3CCN(c4ccccc4F)CC3)CC2=O)cc1 (stereo unspecified),19%,-4,/,-2,4%,-2.5,7%
O=C(Nc1ccon1)c1nc[nH]c1C(=O)N1CCN(c2ccccc2)CC1,/,-13,-2.0%,/,9%,/,-32%[inhibitor]
COc1ccc(NS(=O)(=O)c2ccc(NS(=O)(=O)c3cccc(C(=O)O)c3)cc2)cc1,1%,-8,/,-2,13%,/,-1%[15.4 µM]
CC1CN(c2oc(-c3ccco3)nc2C#N)CC(C)O1 (stereo unspecified),13%,14,?,1,-4%,-0.5,12%
CCn1c(=O)c2cc(C(=O)NCCOC)sc2c2ccccc21,14%,-12,/,7,-1%,4.7,-12%[15.4 µM]
O=C(CSc1ncnc2c1oc1ccccc12)NCC1CCCO1 (stereo unspecified),/,-6,-2.6%,/,11%,/,?
CCOc1ccc2nc(SCC(=O)NCc3ccccc3)[nH]c2c1,0%,-7,0.4%,-3,1%,-4.6,5%[15.4 µM]
N#Cc1ccccc1OCC(=O)OCC(=O)NC1CC1,/,-2,0.9%,29,21%,/,22%
CCOc1ccc(C(CC(=O)O)NC(=O)C(CC)c2ccccc2)cc1 (stereo unspecified),20%,-4,0.7%,-6,-7%,-0.1,-4%
O=C(CCCCn1c(=O)[nH]c2ccsc2c1=O)NCc1ccc2c(c1)OCO2,16%,-4,1.3%,/,3%,2.2,-25%
CCOc1ccccc1Nc1nnc(SCc2ccc(C(=O)OC)o2)s1,-23%,-9,0.9%,-10,-12%,3.1,-10%
COc1ccc(CCC(=O)OCC(=O)NCc2ccc(OC)c(OC)c2)cc1OC,/,0,-1.0%,/,-1%,/,2%[15.4 µM]
O=C(NCC1CCCO1)C(c1cccs1)N(Cc1cccs1)C(=O)Cn1nnc(-c2cccs2)n1 (stereo unspecified),4%,7,2.0%,-5,-21%,6.6,14%
Cn1nc(OCC(=O)O)cc1C(F)(F)F,17%,-6,-3.0%,3,-6%,0.4,2%[15.4 µM]
CCN(CC)S(=O)(=O)c1ccc(C(=O)OCn2nnc3ccccc3c2=O)cc1,8%,1,-0.7%,-25,-4%,5.2,0%
O=C(NCc1ccccn1)C1CCN(S(=O)(=O)N2CCCC2)CC1,2%,-3,-0.7%,-2,-5%,-4.1,1%
CCc1ccc2oc(C(=O)NCCc3ccc(S(N)(=O)=O)cc3)cc(=O)c2c1,15%,5,/,7,8%,-4.8,-1%
CCc1cc(-c2onc(C)c2-c2cscn2)c(O)cc1OC,3%,5,/,10,/,2.0,21%[15.4 µM]
O=C1NN(c2cccc(Br)c2)C(=O)/C1=C\c1ccc(O)cc1,-6%,-12,0.9%,-1,-21%,-1.6,18%
Cn1c(=O)cc(N)n(Cc2ccccc2)c1=O,35%&4%,-3,1.9%,8,11%,2.1&4.8,/
COc1ccc(N2CCN(C(=O)CSc3nc4[nH]ncc4c(=O)n3-c3cccc4ccccc34)CC2)cc1,15%,-4,-0.6%,-6,-12%,-3.6,-8%[15.4 µM]
Cc1ccc(NC(=O)C2CCN(S(=O)(=O)c3c(C)noc3/C=C/c3ccco3)CC2)nc1,9%,-20,-7.4%,-3,-2%,1.0,18%
CC(C)NC(=O)c1cc2c(-c3ccc(Cl)cc3)nn(C)c2s1,3%,-3,?,/,?,1.0,23%
CCc1nc(NCc2ccc3c(c2)OCO3)c2oc3ccccc3c2n1,-32%,4,-11%,-11,-5%,10,-11%
CN1CCN(CC(=O)Nc2ccc([N+](=O)[O-])cc2Br)CC1,9%,-7,/,-48,/,0.6,2%[15.4 µM]
CCn1c(SCC(=O)NNC(=O)c2ccccc2)nnc1-c1ccncc1,-4%,-3,0.0%,3,0%,2.8,19%
CC(C)Oc1cccc(C2NC(=O)c3ccccc3O2)c1 (stereo unspecified),10%,-8,1.1%,-12,-9%,-0.7,-13%[15.4 µM]
O=C(CSc1n[nH]c(-c2cccnc2)n1)Nc1ccc(Br)cc1,-8%,-9,/,-9,-27%,-7.2,5%
Cc1cc(C)nc(/N=C(\NC(=O)C(C)(C)C)Nc2ccccc2)n1,21%,-10,/,/,-5%,4.3,9%[15.4 µM]
COC(=O)C(Sc1ccc(Cl)cc1)C1SC(=S)N(Cc2ccccc2)C1=O (stereo unspecified),/,-16,0.6%,/,/,/,?
O=C(c1cccc(C(F)(F)F)c1)c1c[nH]c(C(=O)NCCCN2CCOCC2)c1,10%,4,/,19,4%,-2.1,10%[15.4 µM]
COCCCN1CN=C(NS(=O)(=O)c2ccc(C)cc2)NC1,12%,-1,/,7,7%,2.4,-7%
Cc1nc2nc(SCC(=O)NCc3ccco3)nn2c(C)c1Cc1c(F)cccc1Cl,-8%,17,-2.0%,-2,1%,3.5,14%
Cc1cc(=O)[nH]c(SCC(=O)N2CCCCC2)n1,2%,-20,-0.4%,3,-1%,-1.5,-23%
Cc1cc(OCC(=O)N2CCC(C(N)=O)CC2)c2c(C)cc(=O)oc2c1,23%,-3,4.8%,-10,10%,3.9,/
N#CCC(=O)Nc1ccc(C(=O)OCC(=O)N2CCCC2=O)cc1,/,1,-1.3%,-18,2%,/,-12%[15.4 µM]
COc1cccc(NC(=O)c2cc([N+](=O)[O-])ccc2NC(=O)CNCC2CCCO2)c1 (stereo unspecified),3%,2,-3.4%,3,-22%,-3.3,18%
COc1ccc([C@]23Cc4ccccc4C(O2)C2=C(CC4(CCCCC4)OC2=O)O3)cc1,14%,/,/,i,/,-1.5[11.7 µM],/
Cc1c(C#N)c(N)c(C(=O)c2ccccc2)n1Cc1ccccc1,-11%,-15,-4.3%,-5,-6%,0.2,-63%[inhibitor]
CSc1nnnn1-c1c(C)cc(C)cc1C,10%,-17,/,5,3%,1.4,3%[15.4 µM]
CCn1cc(C(=O)NCc2ccc(Cl)cc2)c(=O)c2cc(S(=O)(=O)N(C)C)ccc21,7%,0,/,14,?,-0.1,1%
CN(C)S(=O)(=O)c1cccc(COC(=O)CN2CCCCCC2=O)c1,15%,-1,/,5,-1%,0.6,-21%
CCc1ccc(OCC(=O)NNC(=O)CSc2ncnc3sc(C)c(C)c23)cc1,28%,-8,-0.1%,24,15%,-0.4,12%
CCN(CC)C(=O)c1cnn(-c2ccccc2)c1NC(=O)c1ccco1,5%,2,-1.7%,3,2%,-0.5,2%
CC(C)(C)c1ccc(C(=O)c2c[nH]c(C(=O)NCC3CCCO3)c2)cc1 (stereo unspecified),7%,5,-1.5%,/,-9%,-6.4,-4%
Cn1nc(C(=O)OCC(=O)N2CCc3ccccc32)c2ccccc2c1=O,-27%,-21,0.6%,-4,-2%,-0.8,-3%
CN(Cc1ccccc1)C(=O)c1ccc(NC(=O)Cc2cccc(NC(=O)C3CCCN(C(=O)CCc4ccccc4)C3)c2)cc1 (stereo unspecified),/,-4,-1.5%,27,-9%,/,/
COc1ccc(/C=C2\N=C(SC)SC2=O)cc1OC,5%,-24,0.9%,-3,-1%,0.7,-2%
CCN(CC)S(=O)(=O)c1ccc(NCCc2ccccn2)nc1,6%,-7,/,-1,5%,3.3,10%[15.4 µM]

# More results
SMILES,Sfp inh,D2 PAM,ClpP mod,TRPV1 PAM,gsp antagonist,Menin MLL FP FL,gsp agonist
COc1ccccc1CCC(=O)OCC(=O)Nc1cc(C)nn1-c1ccccc1,/,-20,-22%,-2,7%,/,-12%[15.4 µM]
CCOC(=O)N1CCN(C(=S)NC(=O)c2cc(Br)ccc2Cl)CC1,31%[activator],13,/,3,-28%,0.0,5%[15.4 µM]
N#Cc1c(/N=C/c2cccs2)sc2c1CCCCC2,-14%,1,-0.2%,-6,2%,-2.5,18%
NC(=NC(=O)c1ccccc1)N1CCN(C(c2ccccc2)c2ccccc2)CC1,16%,-10,/,2,1%,-1.2,-7%[15.4 µM]
O=C(CN1CCN(Cc2ccc(Cl)cc2)CC1)N/N=C/c1ccncc1,10%,-22,-3.4%,-5,-9%,1.8,1%
CC(=O)Nc1ccc2c(c1)C(N1CC3CCC(CC3)C1)c1ccccc1-2 (stereo unspecified),/,-34,0.0%,/,-11%,/,-5%[15.4 µM]
Cn1c(SCc2nc(-c3cccs3)no2)nnc1C1CCCCC1,8%,2,1.2%,8,-18%,-0.3,7%
